Mtb MenB inh – inhibitors of Mycobacterium tuberculosis MenB enzyme; P9WNP5; MenB enzyme assay, absorbance read-out; some hits fall short of the stated cut; inhibition, %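 (about 12 µg/mL by stock and volumes)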; 100,000 compounds, 0.43% hits; AID 540299;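 active = mean of two replicates above 30%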;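 note: 0% = no compound and 100% = wells with inactive enzyme; the first replicate is given; strong numbers were not always called active; inactives centre near -10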
Target sequence (P9WNP5 whole entry, looked up): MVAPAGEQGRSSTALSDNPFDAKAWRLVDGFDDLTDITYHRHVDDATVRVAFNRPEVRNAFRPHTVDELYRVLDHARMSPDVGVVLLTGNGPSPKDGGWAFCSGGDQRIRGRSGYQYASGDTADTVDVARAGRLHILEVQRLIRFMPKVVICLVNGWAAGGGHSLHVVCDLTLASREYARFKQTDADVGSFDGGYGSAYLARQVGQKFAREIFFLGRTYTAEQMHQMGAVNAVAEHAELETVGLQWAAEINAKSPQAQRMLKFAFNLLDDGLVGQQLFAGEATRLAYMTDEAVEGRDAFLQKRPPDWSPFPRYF
Polio RdRp inh – poliovirus RNA polymerase inhibition; % elongation, % (compound at 16.7 µg/mL); poliovirus polymerase elongation, fluorescence polarization; hits give low values; 150,000 compounds, 0.66% hits; P03300; in the data active = % elongation below about 90%; note: some results filed as inactive read as strong as hits
Target sequence (P03300 1749-2209 limits assumed): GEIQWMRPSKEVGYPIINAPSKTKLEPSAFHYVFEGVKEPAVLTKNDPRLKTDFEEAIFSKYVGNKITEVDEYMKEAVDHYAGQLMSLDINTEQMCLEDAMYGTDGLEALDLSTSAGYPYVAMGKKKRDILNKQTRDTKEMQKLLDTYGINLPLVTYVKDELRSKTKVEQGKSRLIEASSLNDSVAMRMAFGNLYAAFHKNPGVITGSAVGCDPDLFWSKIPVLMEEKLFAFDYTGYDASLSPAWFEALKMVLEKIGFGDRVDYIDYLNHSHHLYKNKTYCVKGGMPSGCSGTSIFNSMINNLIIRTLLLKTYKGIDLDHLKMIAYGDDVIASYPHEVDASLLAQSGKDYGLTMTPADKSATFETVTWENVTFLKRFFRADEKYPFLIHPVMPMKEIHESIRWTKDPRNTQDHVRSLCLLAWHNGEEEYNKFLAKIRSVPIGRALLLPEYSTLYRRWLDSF
MbtI inh – MbtI salicylate synthase inhibition | P9WFX0 | 100,000 compounds, 0.89% hits | purified MbtI enzyme, fluorescence intensity read-out | inhibition, %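 (about 17 µg/mL by stock and volumes)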;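 active = above 50% in both replicates, above 80% if mildly self-fluorescent; inactive = the rest, strongly fluorescent compounds included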;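 note: 0% = mean of negative and 100% = mean of positive controls; one replicate is shown; some compounds called inactive have numbers as strong as hits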
Polio RdRp inh intensity – recorded beside Polio RdRp inh, whose call it bears; % elongation; measured here: total intensity read-out; formula for this scale not given here;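 total fluorescence in place of polarization; lower means less elongation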
The depositor's hits bear a star; / = not tested or not shown.

The first 24 records, ahead of the listing:
SMILES | Mtb MenB inh | Polio RdRp inh | Polio RdRp inh intensity | MbtI inh
CC(Sc1nnc(-c2ccncc2)o1)C(N)=O (stereo not given) | 13 | 101 | 104 | 13
COc1ccc2cc3cc(C(=O)NCCCN4CCN(C)CC4)sc3nc2c1 | 4 | 99 | 102 | 115
Cc1cccc(N2CCN(C(=O)C(NS(=O)(=O)c3cccc4nsnc34)C(C)C)CC2C)c1 (stereo not given) | -19 | 105 | 106 | -1
CC(Oc1cccc(Cl)c1)C(=O)N(C)Cc1nc2ccccc2c(=O)[nH]1 (stereo not given) | -10 | 100 | 105 | -6
O=c1oc(-c2ccc(F)cc2)nc2scc(-c3cccs3)c12 | 9 | 99 | 104 | 0
O=C(NC(=S)NC1C2CC3CC(C2)CC1C3)c1ccco1 (stereo not given) | -34 | 99 | 101 | 6
CN(C)S(=O)(=O)c1ccc(C(=O)OCc2csc(Nc3ccccc3)n2)cc1 | -11 | 103 | 109 | -17
CCOC(=O)c1sc(-c2ccccc2)nc1OCc1c(Cl)cccc1Cl | -2 | 102 | 105 | 8
OCCCNc1ncnc2sc(-c3ccccc3)cc12 | -20 | 98 | 95 | 107
O=c1[nH]c(O)c(/C=N/Nc2ccccc2)c(=O)[nH]1 | -50 | 101 | 103 | -2
O=C(Sc1cccc2cccnc12)c1ccccc1 | / | 104 | 106 | 13
CN(C)c1ccc2c(c1)S(=O)(=O)c1cc(N(C)C)ccc1C2=O | -7 | 87 | 187 | 13
CC(C)CNS(=O)(=O)c1ccc2nc(NC(=O)c3ccccn3)sc2c1 | -89 | 107 | 95 | 68*
Fc1ccccc1OCCCOc1ccccc1F | -18 | 100 | 102 | -6
O=C(c1ccc(S(=O)(=O)N2CCCc3ccccc32)s1)N1CCCC1 | -7 | 99 | 100 | -3
Cc1cc(C)c(C#N)c(Sc2ncnc3c2sc2nc(C)cc(C)c23)n1 | -17 | 104 | 113 | -13
CCOC(=O)c1sc(NC(=O)CN2C(=O)C3CC=CCC3C2=O)nc1C (stereo not given) | 10 | 104 | 104 | 15
OC(CN1CCCCC1)CN(c1ccccc1)c1ccccc1 (stereo not given) | -1 | 101 | 101 | -46
COc1ccc(Br)cc1C(=O)Nc1ccc(NC(=O)c2ccco2)cc1 | -40 | 99 | 102 | 11
CSCCC1Oc2ccccc2C2CC(c3ccccc3O)=NN12 (stereo not given) | 15 | 102 | 104 | -8
CCCCCCOc1ccc(C(=O)OCC(=O)Nc2c(C)n[nH]c2C)cc1OC | -11 | 102 | 104 | 8
CC(C)(C)C1=CC(=O)C(C(C)(C)C)=CC1=O | 2 | 106 | 111 | -11
O=C(NC1CCCC1)c1ccc(-n2c(-c3ccccc3)cc3c2CCCC3)cc1 | -14 | 104 | 108 | 73
Clc1ccc(C2Nc3ccccc3-c3nc(C4CC4)nn32)cc1 (stereo not given) | -6 | 103 | 112 | 110

Main list, from the first entry:
SMILES | Mtb MenB inh | Polio RdRp inh | Polio RdRp inh intensity | MbtI inh
CC(Sc1nnc(-c2ccncc2)o1)C(N)=O (stereo not given) | 13 | 101 | 104 | 13
COc1ccc2cc3cc(C(=O)NCCCN4CCN(C)CC4)sc3nc2c1 | 4 | 99 | 102 | 115
Cc1cccc(N2CCN(C(=O)C(NS(=O)(=O)c3cccc4nsnc34)C(C)C)CC2C)c1 (stereo not given) | -19 | 105 | 106 | -1
CC(Oc1cccc(Cl)c1)C(=O)N(C)Cc1nc2ccccc2c(=O)[nH]1 (stereo not given) | -10 | 100 | 105 | -6
O=c1oc(-c2ccc(F)cc2)nc2scc(-c3cccs3)c12 | 9 | 99 | 104 | 0
O=C(NC(=S)NC1C2CC3CC(C2)CC1C3)c1ccco1 (stereo not given) | -34 | 99 | 101 | 6
CN(C)S(=O)(=O)c1ccc(C(=O)OCc2csc(Nc3ccccc3)n2)cc1 | -11 | 103 | 109 | -17
CCOC(=O)c1sc(-c2ccccc2)nc1OCc1c(Cl)cccc1Cl | -2 | 102 | 105 | 8
OCCCNc1ncnc2sc(-c3ccccc3)cc12 | -20 | 98 | 95 | 107
O=c1[nH]c(O)c(/C=N/Nc2ccccc2)c(=O)[nH]1 | -50 | 101 | 103 | -2
O=C(Sc1cccc2cccnc12)c1ccccc1 | / | 104 | 106 | 13
CN(C)c1ccc2c(c1)S(=O)(=O)c1cc(N(C)C)ccc1C2=O | -7 | 87 | 187 | 13
CC(C)CNS(=O)(=O)c1ccc2nc(NC(=O)c3ccccn3)sc2c1 | -89 | 107 | 95 | 68*
Fc1ccccc1OCCCOc1ccccc1F | -18 | 100 | 102 | -6
O=C(c1ccc(S(=O)(=O)N2CCCc3ccccc32)s1)N1CCCC1 | -7 | 99 | 100 | -3
Cc1cc(C)c(C#N)c(Sc2ncnc3c2sc2nc(C)cc(C)c23)n1 | -17 | 104 | 113 | -13
CCOC(=O)c1sc(NC(=O)CN2C(=O)C3CC=CCC3C2=O)nc1C (stereo not given) | 10 | 104 | 104 | 15
OC(CN1CCCCC1)CN(c1ccccc1)c1ccccc1 (stereo not given) | -1 | 101 | 101 | -46
COc1ccc(Br)cc1C(=O)Nc1ccc(NC(=O)c2ccco2)cc1 | -40 | 99 | 102 | 11
CSCCC1Oc2ccccc2C2CC(c3ccccc3O)=NN12 (stereo not given) | 15 | 102 | 104 | -8
CCCCCCOc1ccc(C(=O)OCC(=O)Nc2c(C)n[nH]c2C)cc1OC | -11 | 102 | 104 | 8
CC(C)(C)C1=CC(=O)C(C(C)(C)C)=CC1=O | 2 | 106 | 111 | -11
O=C(NC1CCCC1)c1ccc(-n2c(-c3ccccc3)cc3c2CCCC3)cc1 | -14 | 104 | 108 | 73
Clc1ccc(C2Nc3ccccc3-c3nc(C4CC4)nn32)cc1 (stereo not given) | -6 | 103 | 112 | 110
COc1ccc(C2CC(=O)C=C(NCCC(C)C)C2)cc1 (stereo not given) | 4 | 102 | 103 | 9
O=C(O)CSc1nc(-c2ccccc2)cc(=O)[nH]1 | 4 | 100 | 102 | 2
O=C(Nc1cccc(-c2nc3ccccc3c(=O)o2)c1)C1CCCCC1 | -20 | 103 | 109 | 29
Cc1cc(OCCCCCn2ccnc2)cc(C)c1Cl | -29 | 104 | 102 | -2
O=C(CC1SC(=NC2CCCC2)NC1=O)NCc1ccc(Cl)cc1 (stereo not given) | 9 | 99 | 105 | 17
Cc1cccc(NC(=O)CCNS(=O)(=O)c2cccc3nonc23)c1C | -23 | 99 | 102 | 8
CC1CCCCC1NC(=O)Nc1ccccc1F (stereo not given) | -29 | 101 | 102 | -29
CCOc1ccc(CNC23CN4CN(CN(C4)C2)C3)cc1 | -18 | 104 | 101 | -11
CC(=O)Nc1ccc(-c2nnc(-c3ccco3)o2)cc1 | -31 | 103 | 101 | 88
O=C(CN1C(=O)CSC1=O)c1ccccc1 | 3 | 101 | 102 | -5
CCC(C)NC(=S)N1CCN(C)CC1 (stereo not given) | 11 | 101 | 99 | -8
COc1ccc2nc(SCC(=O)Nc3ccnn3C3CCCC3)[nH]c2c1 | -4 | 104 | 106 | 5
CCn1nnc2c(N3CCN(c4ccccc4Cl)CC3)ncnc21 | -45 | 109 | 115 | 80
Cc1cc(C)c2c(NC(=O)COc3ccc(Cl)cc3)n[nH]c2n1 | -13 | 102 | 110 | 4
COC(=O)c1cccc(CSc2nc3ccccc3[nH]2)c1 | / | 102 | 96 | 34
CC(C)n1c(=O)c2sccc2n2c(=S)sc(-c3ccccc3)c12 | -79 | 102 | 107 | 4
O=c1ccc2nc3ccccc3c(=O)n2[nH]1 | -16 | 104 | 103 | -22
COc1cc(C(=O)NCc2ccccc2)cc(OC)c1OC | -9 | 101 | 108 | -10
COc1ccc(-c2cc(N)nc(N)n2)cc1 | -20 | 100 | 96 | -5
Cc1ccccc1-n1nnnc1Sc1nnnn1-c1ccccc1 | 10 | 108 | 102 | 18
Fc1ccc(CN2CCc3ccccc3C2)cc1Br | -27 | 99 | 104 | -29
O=S(c1c(F)c(F)c(F)c(F)c1F)c1c(F)c(F)c(F)c(F)c1F | 3 | 94 | 95 | 7
O=C(Cc1ccc(S(=O)(=O)N2CCCCC2)s1)N1CCc2ccccc21 | -45 | 112 | 120 | -6
CCN(CC)c1ncnc2c1[nH]c1ccc(C)cc12 | -12 | 101 | 97 | 65
O=C(Nc1ccnn1C1CCCC1)c1ccc2c(c1)CCC2 | -26 | 103 | 95 | -3
Oc1cc(-c2nc3ccccc3o2)c(O)cc1-c1nc2ccccc2o1 | 8 | 98 | 103 | -7

An excerpt from above in order of length of the SMILES, low to high:
SMILES | Mtb MenB inh | Polio RdRp inh | Polio RdRp inh intensity | MbtI inh
O=c1oc(-c2ccc(F)cc2)nc2scc(-c3cccs3)c12 | 9 | 99 | 104 | 0
CC(C)n1c(=O)c2sccc2n2c(=S)sc(-c3ccccc3)c12 | -79 | 102 | 107 | 4
Cc1cccc(N2CCN(C(=O)C(NS(=O)(=O)c3cccc4nsnc34)C(C)C)CC2C)c1 (stereo not given) | -19 | 105 | 106 | -1

(further entries)
SMILES | Mtb MenB inh | Polio RdRp inh | Polio RdRp inh intensity | MbtI inh
Nc1cc(C(F)(F)F)ccc1-n1cccn1 | -10 | 105 | 98 | -14
CN(Cc1ccccc1)C(=O)CC1(CC(=O)O)CCCC1 | -5 | 114 | 112 | -10
O=C(CN1CCSCC1)N/N=C/c1ccc(Br)cc1 | -76 | 103 | 97 | 4
O=C(O)CC1(CC(=O)Nc2ccc3c(c2)OCCO3)CCCCC1 | -17 | 103 | 106 | -4
Cc1cc(C)n(C(=O)C(C)NC(=O)c2ccccc2)n1 (stereo not given) | 23* | 104 | 101 | /
Cc1ccc(P(=Nc2ccc(S(N)(=O)=O)cc2)(Oc2ccccc2)C(C)(C)C)o1 (stereo not given) | -18 | 101 | 102 | -2
N#CCCn1cc(C=NCc2ccccc2)c(-c2cc3ccccc3o2)n1 | -9 | 103 | 107 | -7
Cc1cccc(C(C)C)c1NC(=O)CN1CCc2ccccc21 | -6 | 101 | 100 | -10
Cc1nnc(SCc2cc(=O)[nH]c(=S)[nH]2)s1 | -4 | 101 | 103 | 21
Cc1ccc(S(=O)(=O)N(CC(=O)NO)Cc2ccccc2)cc1 | 5 | 103 | 103 | 2
O=C(Cn1cc(C(=O)C2CC2)c2ccccc21)NCc1cccs1 | -21 | 106 | 107 | 1
Oc1ccc(F)c(F)c1 | -12 | 106 | 111 | 5
CCOC(=O)Cc1csc(SCC(=O)c2cc(C)n(-c3ccc(C)cc3)c2C)n1 | -19 | 103 | 113 | -1
Cc1ccc(S(=O)(=O)Nc2c(O)c3ccccc3oc2=O)c(C)c1 | -27 | 103 | 103 | 24
COC(=O)c1ccc(CNC(=O)c2ccc(S(=O)(=O)N(C)C)cc2)cc1 | -8 | 106 | 103 | -8
Cc1[nH]c2ccc(CN3C(=O)c4ccccc4C3=O)cc2c1C | -20 | 101 | 101 | 9
Cc1cc2c(cc1C)CSC(c1ccc(N(C)CCC#N)cc1)SC2 | -1 | 110 | 109 | 1
CCN(CC(=O)Nc1ccccc1OC)C(=O)CC1CCCC1 | -11 | 98 | 102 | -1
Cc1nc2c3c(cccc3n1)C(=O)c1ccccc1-2 | 0 | 100 | 109 | 0
COC(=O)/C(C#N)=C/N(C)C | 6 | 100 | 99 | 8
CCSc1nnc(NC(=O)c2cccc(S(=O)(=O)N3CC(C)CC(C)C3)c2)s1 (stereo not given) | 8 | 97 | 106 | 10
COc1ccc(C2NC(c3ccc(OC)cc3)C(C)C(=O)C2C)cc1 (stereo not given) | -14 | 98 | 99 | -6
O=C1NCCN=C1c1cc(Cl)sc1Cl | -21 | 101 | 106 | -5
COc1ccc(Nc2cc(-c3ccccc3)nc3nncn23)cc1OC | 1 | 98 | 98 | 168
c1ccc(Nc2ncnc3ccccc23)cc1 | / | 101 | 103 | -2
O=C(NN1CC(C(=O)OCc2ccccc2F)CC1=O)c1ccccc1 (stereo not given) | -16 | 102 | 104 | -14
CCn1c(=O)cc(OCC(=O)Nc2cccc(OC)c2)c2ccccc21 | -28 | 100 | 98 | 4
S=C(NNc1ccccc1)Nc1ccccc1 | -51 | 101 | 100 | 4
CN1C(=O)S/C(=C\c2ccccc2Br)C1=O | -26 | 100 | 101 | 3
CC(C)CC1(c2ccccc2)NC(=O)NC1=O (stereo not given) | -26 | 104 | 109 | -6
N#C/C(C(=O)c1ccccc1)=C1/SC=C(N)N1c1ccccc1 | -25 | 75 | 175 | 33
COC(=O)c1sc(C(=O)OC)c2c1OCCO2 | -19 | 106 | 102 | /
CCOc1ccccc1OC(=O)C(C)(C)C | -11 | 98 | 100 | 2
COc1ccccc1-c1cc(NC(=NCC2CCCO2)SC)n[nH]1 (stereo not given) | -17 | 106 | 104 | 4
COc1ccccc1CN1CCN(Cc2ccccc2)CC1 | -1 | 103 | 105 | -7
COc1cccc(N2CCN(C(=O)C3=NNC(=O)CC3)CC2)c1 | -12 | 102 | 115 | -2
Cc1ccc2cc(C3CC(c4ccco4)=NN3S(C)(=O)=O)c(=O)[nH]c2c1 (stereo not given) | -15 | 104 | 107 | 55
CO[C@@H]1[C@@H](O[C@@H]2O[C@H](C)[C@@H](O[C@H]3C[C@@](C)(O)[C@H](O)[C@H](C)O3)[C@H](N(C)C)[C@H]2O)[C@@H](CC=O)C[C@@H](C)[C@@H](O[C@H]2CC[C@H](N(C)C)[C@@H](C)O2)/C=C/C=C/C[C@H](C)OC(=O)C[C@H]1O | 8 | 99 | 104 | -8
CC(=O)Nc1ccc(SCC(=O)NC2(C#N)CCCCC2)cc1 | 2 | 105 | 105 | 19
COc1cc(C(=O)n2c(SCc3ccc(F)cc3)nc3ccccc32)cc(OC)c1OC | -20 | 104 | 101 | /
CCNc1cc(N2CCCC2)c2noc3c2c1C(=O)c1ccccc1-3 | -20 | 102 | 109 | -4

Screening results (PubChem)
